Bioassay records (PubChem BioAssay)
RGS16-Gao HTS: modulators of RGS16 binding to Galphao, primary screen, biochemical, human proteins, multiplexed bead flow cytometry; Regulator of G-protein signaling 16 (Homo sapiens) + Guanine nucleotide-binding protein …; bead-based flow cytometry RGS16-Galphao binding, fluorescence; actives lie on both sides; binding response (% of control), % at 10 µM; 0.38% of 220,000 active;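 active means below 25% or above 175%, edge rows of some plates excepted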;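 further: Galphao activated by GDP with aluminum fluoride before binding; 100% = wells without compound and 0% = beads without RGS; some results beyond the cut were filed as inactive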
Target sequence (O15492 whole entry, looked up): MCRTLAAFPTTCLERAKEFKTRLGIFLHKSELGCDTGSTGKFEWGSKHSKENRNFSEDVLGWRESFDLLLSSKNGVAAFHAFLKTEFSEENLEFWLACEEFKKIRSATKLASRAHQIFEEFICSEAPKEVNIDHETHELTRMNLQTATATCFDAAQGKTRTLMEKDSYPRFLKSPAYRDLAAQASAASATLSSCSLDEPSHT
Target sequence (P09471 whole entry, looked up): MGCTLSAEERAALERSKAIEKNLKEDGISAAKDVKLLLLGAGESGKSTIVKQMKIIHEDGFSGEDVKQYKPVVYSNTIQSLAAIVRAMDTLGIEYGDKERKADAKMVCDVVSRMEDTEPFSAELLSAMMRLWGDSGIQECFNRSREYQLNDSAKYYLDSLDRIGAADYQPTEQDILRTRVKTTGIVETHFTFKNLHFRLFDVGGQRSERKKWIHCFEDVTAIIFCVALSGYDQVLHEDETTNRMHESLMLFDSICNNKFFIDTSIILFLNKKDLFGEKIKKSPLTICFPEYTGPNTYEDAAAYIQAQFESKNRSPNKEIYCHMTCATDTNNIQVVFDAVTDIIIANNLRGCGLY
INS promoter inh: inhibitors of insulin promoter-driven GFP, primary screen, imaging, TRM-6 cells (human fetal islet line), eGFP reporter, cell count | inhibition, % at 2 µM | reporter expression induced with tamoxifen | AID 1273, 2008 | 0.9% of 130,000 active;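 active means inhibition above the mean plus 3 SD, with well images judged a real hit on visual review, cut at about 60% in these data, passing the limit was not always enough; inconclusive means inhibition over the cutoff but images rejected on review; inactive means inhibition not above the cutoff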
GALR2 agonist: GALR2 receptor agonists, primary screen, cell-based. Galanin receptor type 2 (Homo sapiens), O43603. GALR2-expressing cells, agonist activation read-out. activation, %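 (tested at 5 µM)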. 0.48% of 140,000 active. AID 803, 2007;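 active means above mean plus 3 SD of all compounds, about 5% in these data, not always enough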;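 further: 0% = vehicle buffer wells and 100% = reference agonist at full effect; tested in CHO reporter cells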
Target sequence (O43603 whole entry, looked up): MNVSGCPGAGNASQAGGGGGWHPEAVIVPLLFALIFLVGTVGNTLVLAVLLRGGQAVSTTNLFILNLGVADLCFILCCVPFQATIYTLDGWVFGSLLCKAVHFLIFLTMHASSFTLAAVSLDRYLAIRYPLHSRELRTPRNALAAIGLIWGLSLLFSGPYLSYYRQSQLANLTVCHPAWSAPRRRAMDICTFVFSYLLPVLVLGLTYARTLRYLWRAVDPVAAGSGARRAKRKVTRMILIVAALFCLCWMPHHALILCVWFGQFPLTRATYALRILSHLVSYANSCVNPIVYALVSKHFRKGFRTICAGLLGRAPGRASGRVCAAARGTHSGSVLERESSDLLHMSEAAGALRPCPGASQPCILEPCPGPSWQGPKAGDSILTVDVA
PKD1 inh: inhibitors of human PKD1 kinase, biochemical, fluorescence polarization; Serine/threonine-protein kinase D1 (Homo sapiens), Q15139; PKD1 kinase fluorescence polarization assay; inhibition, %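 (about 10 µM by stock and volumes)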; 0.056% of 200,000 active; AID 797, 2007;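 active means inhibition of 50% or more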;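 further: controls were vehicle for no effect and a reference inhibitor for full effect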
HSV augment: enhancers of HSV replication in host cells, fold increase, host cell viability. 0.005% of 220,000 active. maximum fold increase. HSV replication augmentation in cells. AID 1956, 2009;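 active means peak rise of 1.5-fold or more in the series; inconclusive means self-fluorescent or not available for retest; tested in PC3 cells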;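 further: first round at 10 µM; read as green reporter fluorescence; hits show the peak of a series up to 25 µM; 1 = signal of infected wells without compound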
INS promoter inh cell count: further read-out of INS promoter inh, marked with its call; normalized cell count, %; measured here: cell count, toxicity; reference of the scale not given here;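 cells exposed to compound for 48 h; stained nuclei by imaging scaled within each plate; lower means fewer cells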
HSV augment primary fold: second read-out of HSV augment, no call of its own (marks repeat the call); fold increase; compound at 10 µM; measured here: primary screen fold increase 10 uM; tested in PC3 cells;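 GFP signal in the first replicate; 1 = infected wells without compound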
An asterisk follows results filed as active; i = inactive; ? = inconclusive; . = no result given.

molecule | RGS16-Gao HTS | INS promoter inh | INS promoter inh cell count | GALR2 agonist | PKD1 inh | HSV augment | HSV augment primary fold
Cc1cc(C)cc(N(CC(=O)NCc2ccc3c(c2)OCO3)C(=O)CCC(=O)Nc2ccccn2)c1 | 103 | . | . | -1.0 | -8 | i | 0.82
Cc1nn(-c2ccccc2)c(C)c1/C=N/n1c(-c2ccc(C(C)(C)C)cc2)n[nH]c1=S | 109 | -213 | 102 | -1.0 | -8 | i | 0.96
Cc1ccc(Nc2nc(Oc3ccc(=O)[nH]n3)nc(N(C)C)n2)cc1 | 102 | . | . | -0.7 | 2 | i | 0.9
O=C(N/N=C/c1ccccc1OCc1ccccc1Cl)c1cccnc1 | 106 | . | . | . | -6 | i | 0.93
Cc1ccc(SC(C)C(=O)NCc2cccnc2)cc1 (stereo not given) | 91 | 9 | 110 | -0.2 | -1 | i | 1.2
Cc1c(C2=CCN(S(=O)(=O)c3ccc(Br)cc3)CC2)c2ccccc2n1C | 111 | -61 | 198 | 1.9 | -5 | i | 1.2
C/C(=N\NC(=O)C(=O)Nc1cc(Cl)ccc1Cl)c1ccncc1 | 100 | -15 | 120 | -0.6 | -15 | i | 0.97
COC(=O)c1ccc(OC)c(OC)c1Cl | 97 | . | . | . | . | i | 1.1
CCOC(=O)Cc1csc(NC(=O)CSc2nnc(-c3ccncc3)n2Cc2ccco2)n1 | . | 33 | 107 | -1.2 | -15 | i | 1.2
CC1=NNC(=O)C1CCC(=O)N/N=C/c1ccccc1 (stereo not given) | 104 | . | . | . | . | i | 1
O=C(O)Cc1ccc(NCc2ccccc2Cl)cc1 | 100 | . | . | . | 1 | i | 0.84
Cc1nccn1CC(=O)N/N=C/c1cccs1 | 97 | . | . | . | . | i | 0.92
Cc1ccc(-c2cn3nc(-c4ccccc4)c(-c4ccccc4)nc3n2)cc1 | 107 | . | . | . | . | i | 1.1
CC(Oc1ccc(Cl)cc1Cl)c1ccnc(N)n1 (stereo not given) | 94 | . | . | . | -6 | i | 0.98
Cc1ccc(CN2CCNC(=O)C2CC(=O)O)o1 (stereo not given) | 101 | . | . | -2.7 | -6 | i | 0.79
N=C(N)c1ccc(O)cc1 | 99 | 47 | 44 | . | -2 | i | 0.99
Cc1cccc(NCC(=O)N/N=C\c2cccc(Oc3ccccc3)c2)c1 | 101 | -3 | 125 | -0.4 | -11 | i | 0.72
COCCN(Cc1ccccc1)C(=S)Nc1ccc(Cl)cc1 | 102 | -14 | 145 | . | 7 | i | 0.97
CN(C)/C=N/n1cnc2ccccc2c1=O | 91 | . | . | . | . | i | 0.91
CC1=C(C)CC2C(=O)N(c3cccc4ccccc34)C(=O)C2C1 (stereo not given) | 96 | . | . | -3.6 | 2 | i | 1.1
Cc1cc(C)c2c(C)nn(C3CCCCC3)c2n1 | 99 | 31 | 134 | -0.6 | 4 | i | 0.98
O=C(Nc1ccc(S(=O)(=O)N2CCCCC2)cc1)c1ccc(CN2CCOCC2)cc1 | 43 | . | . | -2.4 | 0 | i | 1
O=C(CSCCc1ccccn1)Nc1ccccn1 | 82 | . | . | -2.9 | -3 | i | 0.86
O=C(NCc1cccc(Cl)c1)c1cnn2c1NC(c1ccco1)CC2C(F)(F)F (stereo not given) | 106 | 37 | 176 | -1.2 | -5 | i | 0.83
COc1ccc(S(=O)(=O)NC2CCCCC2)c(C)c1C | 104 | -10 | 78 | -0.3 | 8 | i | 1
COc1cccc(NC(=S)NCc2ccccn2)c1 | 102 | -73 | 95 | -0.8 | -3 | i | 0.97
COc1ccc(N2C(C)=CS/C2=C(/C#N)c2nnc(N3CCOCC3)n2-c2ccccc2)cc1 | 100 | . | . | -1.4 | 5 | i | 1.1
Cc1sc2ncnc(NCCCN3CCCC3=O)c2c1C | 97 | . | . | . | -6 | i | 0.93
O=C(NCCc1c[nH]c2ccccc12)c1c(Cl)nc2sccn12 | 2.2* | 13 | 120 | -0.6 | -13 | i | 1
O=C(/C=C/c1ccc(F)cc1)c1cc(Br)ccc1O | 109 | . | . | . | . | i | 0.99

Quoted at random: 2 entries already listed, in no set order.
molecule | RGS16-Gao HTS | INS promoter inh | INS promoter inh cell count | GALR2 agonist | PKD1 inh | HSV augment | HSV augment primary fold
N=C(N)c1ccc(O)cc1 | 99 | 47 | 44 | . | -2 | i | 0.99
O=C(NCc1cccc(Cl)c1)c1cnn2c1NC(c1ccco1)CC2C(F)(F)F (stereo not given) | 106 | 37 | 176 | -1.2 | -5 | i | 0.83

Carrying on:
molecule | RGS16-Gao HTS | INS promoter inh | INS promoter inh cell count | GALR2 agonist | PKD1 inh | HSV augment | HSV augment primary fold
O=C(Nc1nc2c(s1)CCc1ccccc1-2)c1cccs1 | 103 | -200 | 62 | 0.0 | -8 | i | 0.99
O=C(c1ccco1)N1C(=O)c2cccc3c(S(=O)(=O)N4CCCC4)ccc1c23 | 101 | -13 | 71 | 1.3 | 1 | i | 1
CN(C)CCCOC(=O)c1ccc(Cl)cc1Cl | 93 | -36 | 45 | -2.8 | -2 | i | 0.83
Cn1c(=O)c2c(nc(Br)n2Cc2ccccc2Cl)n(C)c1=O | 104 | . | . | -2.3 | 13 | i | 0.9
COc1ccc(C(=O)CSc2nc(N)nc(SC)c2C#N)cc1 | 103 | 39 | 89 | -3.3 | -2 | i | 0.88
CCOC(=O)c1nnn(-c2nonc2N)c1CSc1ccc(C)cc1 | 92 | 35 | 120 | -2.7 | -2 | i | 0.71
c1cncc(CNc2c3c(nc4nnnn24)CCCC3)c1 | 70 | 11 | 90 | -1.0 | -10 | i | 0.6
COc1ccc(-n2c(O)c(/C=N/NS(=O)(=O)c3cccc([N+](=O)[O-])c3)c3ccccc3c2=O)cc1OC | 89 | . | . | . | -3 | ? | .
COc1ccc(C2CC(c3ccccc3)=NN2S(=O)(=O)c2ccccc2)cc1 (stereo not given) | 117 | . | . | . | . | i | 1.2
Cc1nc2ccccc2c(=O)n1/N=C/c1ccccn1 | 96 | . | . | -2.0 | -14 | i | 1.1
CCN(CC)C(=O)C1CCCN(C(=S)Nc2cccc3ccccc23)C1 (stereo not given) | 110 | 0 | 56 | -1.6 | 4 | i | 0.94
Nc1cc(=O)[nH]c(SCC(=O)N2CCCCC2)n1 | 105 | . | . | . | 7 | i | 1.2
CC(=O)NC1(C(F)(F)F)C(=O)Nc2c1c(=O)[nH]c(=O)n2CC(C)C (stereo not given) | 102 | . | . | . | 0 | i | 1.1
Cn1ncc(Cl)c1C(=O)Nc1nc2ccc(Cl)cc2s1 | 92 | 33 | 95 | -0.9 | 2 | i | 0.96
CN(N=Nc1cccc([N+](=O)[O-])c1)c1cccc([N+](=O)[O-])c1 | 101 | 22 | 143 | . | -4 | i | 0.86
Cc1ccc(S(=O)(=O)N2CCCCC2)cc1NC(=O)C1CCCO1 (stereo not given) | 103 | . | . | . | 1 | i | 1.1
COc1ccc(NS(=O)(=O)c2cccc(NC(=O)c3ccc(Cl)nc3)c2)cc1 | 98 | -29 | 78 | . | 6 | i | 0.92
COc1ccc(S(=O)(=O)N2CCOCC2)cc1NC(=O)[C@@H]1CCCN1C(=O)c1cccs1 | 99 | -33 | 70 | . | -1 | i | 0.97
O=C(c1ccc(S(=O)(=O)N2CCc3ccccc3C2)cc1)N1CCCCC1 | 97 | -22 | 80 | . | -1 | i | 0.96
O=C(NN=C1C2CC3CC(C2)CC1C3)c1ccccc1O | 106 | . | . | . | . | i | 1
CCOC(=O)C1C(=O)CC(O)(c2ccccc2)CC1c1ccccc1 (stereo not given) | 101 | -143 | 95 | -0.2 | -8 | i | 0.85
CCC[C@@H](NS(=O)(=O)c1ccc(C)cc1)C(=O)Oc1ccc2c3c(c(=O)oc2c1)CCC3 | 226 | . | . | -0.8 | -5 | i | 1.3
CCC(C)C(NC(=O)OCc1ccccc1)C(=O)OCN1C(=O)c2ccccc2C1=O (stereo not given) | 112 | 17 | 118 | -0.9 | -9 | i | 0.91
COc1ccc2c(c1OC)C(=O)N(c1ccc(C)cc1)C2 | 99 | . | . | . | . | i | 0.79
COc1ccc(C2=C(C=C(C#N)C#N)C(c3ccccc3C)c3ccccc3O2)cc1OC (stereo not given) | 109 | -30 | 87 | -0.9 | -5 | i | 0.82
COc1cc(NC(=O)c2cnc(N)o2)cc(C(=O)Nc2cccc(C(F)(F)F)c2)c1 | 101 | . | . | . | . | i | 0.85
CC1C(C(=O)Nc2ccccc2)CCCC1(C)C(=O)O (stereo not given) | 81 | 16 | 101 | -3.0 | 2 | i | 0.88
O=C1CCN(C2CCN(Cc3nc(Cc4ccccc4F)no3)CC2)CCN1 | 102 | . | . | . | -5 | i | 0.99
O=C(NNC(=O)C1CCCCC1)C(=O)NC1CCCCC1 | 102 | -30 | 57 | -0.7 | -18 | i | 0.95
COc1ccccc1OCc1nc(C#N)c(N2CCCC2)o1 | -34 | . | . | . | -4 | i | 1.1
Oc1ccccc1CNc1cccc2cccnc12 | 101 | . | . | . | 1 | i | 1
O=C(Cc1ccccc1[N+](=O)[O-])NCc1ccc(Cl)cc1Cl | 91 | . | . | 0.0 | 0 | i | 1
CCOC(=O)C(NC(=O)Nc1cccc(C)n1)(OCC(F)(F)F)C(F)(F)F (stereo not given) | 105 | . | . | 0.1 | -5 | i | 0.98
COc1ccc(-c2ccc(-c3noc(C)n3)c(OC)n2)cc1 | 103 | . | . | -2.0 | -2 | i | 1
CCOC(=O)C1=C(O)/C(=C\c2cc(C)n(-c3ccc(F)cc3)c2C)N=C1C | 100 | 29 | 89 | . | -6 | i | 1.1
O=C(N/C(=C/c1ccc(Br)cc1)C(=O)N1CCCC1=O)c1ccco1 | 105 | -6 | 135 | . | 10 | i | 0.67
CC(C)CNC(=O)NC1C(NC(=O)NCC(C)C)N(C)C(=O)N1C (stereo not given) | 105 | 55 | 88 | -0.8 | -14 | i | 1
COc1ccc(COc2cc(-c3cccc(OC)c3)nc3ccc(NC(C)=O)cc23)cc1 | 87 | 15 | 98 | -0.4 | 4 | i | 0.79
CCC(=O)Nc1ccccc1C(=O)NC1CCCCC1 | 102 | 7 | 157 | -1.7 | -7 | i | 1
COCCSc1nc(N)c(NC(=O)c2ccc(OC)cc2)c(=O)[nH]1 | 98 | . | . | . | -3 | i | 1.1
CN1CCN(C(=O)CN(c2cccc(Cl)c2)S(=O)(=O)c2ccccc2)CC1 | 98 | 24 | 37 | 0.4 | -8 | i | 1

A different layout for part of the listing above:
Each structure is followed by: RGS16-Gao HTS, INS promoter inh, INS promoter inh cell count, GALR2 agonist, PKD1 inh, HSV augment, HSV augment primary fold
CC1C(C(=O)Nc2ccccc2)CCCC1(C)C(=O)O (stereo not given)
    81, 16, 101, -3.0, 2, i, 0.88
O=C1CCN(C2CCN(Cc3nc(Cc4ccccc4F)no3)CC2)CCN1
    102, ., ., ., -5, i, 0.99
O=C(NNC(=O)C1CCCCC1)C(=O)NC1CCCCC1
    102, -30, 57, -0.7, -18, i, 0.95
COc1ccccc1OCc1nc(C#N)c(N2CCCC2)o1
    -34, ., ., ., -4, i, 1.1
Oc1ccccc1CNc1cccc2cccnc12
    101, ., ., ., 1, i, 1
O=C(Cc1ccccc1[N+](=O)[O-])NCc1ccc(Cl)cc1Cl
    91, ., ., 0.0, 0, i, 1
CCOC(=O)C(NC(=O)Nc1cccc(C)n1)(OCC(F)(F)F)C(F)(F)F (stereo not given)
    105, ., ., 0.1, -5, i, 0.98
COc1ccc(-c2ccc(-c3noc(C)n3)c(OC)n2)cc1
    103, ., ., -2.0, -2, i, 1
CCOC(=O)C1=C(O)/C(=C\c2cc(C)n(-c3ccc(F)cc3)c2C)N=C1C
    100, 29, 89, ., -6, i, 1.1
O=C(N/C(=C/c1ccc(Br)cc1)C(=O)N1CCCC1=O)c1ccco1
    105, -6, 135, ., 10, i, 0.67
CC(C)CNC(=O)NC1C(NC(=O)NCC(C)C)N(C)C(=O)N1C (stereo not given)
    105, 55, 88, -0.8, -14, i, 1
COc1ccc(COc2cc(-c3cccc(OC)c3)nc3ccc(NC(C)=O)cc23)cc1
    87, 15, 98, -0.4, 4, i, 0.79
